# From PubChem
# BJeLR viability: kills HRASV12-expressing BJeLR cells; AID 1554; 0.17% of 300,000 active; inhibition, % (concentration not given with the values); BJeLR (HRASV12) viability, CellTiter-Glo ATP luminescence, 48 h; reference of the scale not given here;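 active means replicate mean above 50%; inconclusive means above 50% but judged a plate artefact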;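 further: 50 nL library stock added to about 25 µL; numbers are from one replicate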
# Autofluor counter: flagged as autofluorescent in microsphere protease counterscreen. fluorescence intensity (no concentration beside the values). compound autofluorescence counterscreen, microsphere flow cytometry; stronger effect = higher value. 3.1% of 360,000 active. AID 624483;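 active means at least 3 SD above the mean of all compounds, about 16000 in these data; inconclusive means too few beads counted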;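 further: 100 nL of 1 mM stock went into each well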
# PrP 5UTR inh: suppresses PrP 5' UTR mRNA reporter expression; 0.35% of 340,000 active; cell-based PrP 5' UTR mRNA reporter, plate reader; inhibition, % (no concentration beside the values);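 active means every replicate at 50% or more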;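 further: 0 = median of the neutral control wells; tested in H4 reporter cells; numbers are from one replicate; inactives centre near -14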
# Sa ugtP lethal: kills S. aureus RN4220 lacking UgtP | growth inhibition, % (no concentration beside the values) | 0.54% of 330,000 active | AID 1259309 | S. aureus RN4220 ugtP deletion, OD600 growth, 16 h; some inactives read as strong as hits;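 active means z-score under -3 and OD600 up to 0.15 on both plates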;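 further: plate controls were untreated wells for no effect and antibiotic for full effect; wells of about 80 µL received 100 nL stock; the first replicate is given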
# Mtb hypoxia inh: reduces hypoxia-regulated biosensor signal in M. tuberculosis | 0.1% of 300,000 active | AID 1159583 | M. tuberculosis hypoxia-regulated fluorescent reporter, fluorescence | fluorescence inhibition, % (test concentration not listed);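 active means 35 to 45% if threefold the growth effect, above 45% if 1.5-fold the growth effect; inactive means the rest, general growth blockers included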;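 further: wells of about 50 µL received 100 nL stock; 0% = vehicle wells and 100% = reference inhibitor wells; whole bacteria with a GFP reporter of the hypoxia response; strong numbers were not always called active; many hits fall short of the cut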
# RN4220 kill: kills Staphylococcus aureus RN4220; inhibition, % (test concentration not listed); S. aureus RN4220 growth, OD600, 16 h; 0.33% of 330,000 active;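 active means z-score of -3 or lower and OD600 up to 0.18 on both plates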;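 further: plate controls were untreated cells for no effect and reference antibiotic for full effect; stock transfer was 100 nL into about 80 µL; one replicate is shown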
# Mtb hypoxia inh growth: recorded beside Mtb hypoxia inh, whose call it bears; growth inhibition, %; measured here: M. tuberculosis growth (absorbance);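 0% = vehicle and 100% = reference antibiotic; read after six days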
# An asterisk follows results filed as active; ? = inconclusive; · = no result given. Not a hit list. About 4% of those tested had a hit in this group.
SMILES,BJeLR viability,Autofluor counter,PrP 5UTR inh,Sa ugtP lethal,Mtb hypoxia inh,Mtb hypoxia inh growth,RN4220 kill
Cc1ccc(C2(C)NC(=O)N(CC(=O)N(Cc3ccccc3)C(C)(C)C)C2=O)cc1 (stereo not drawn),5,6829,-15,1,18,-1,-1.0
CCOC(=O)C(NCc1ccco1)(NC(=O)c1ccccc1)C(F)(F)F (stereo not drawn),-1,3765,-16,-4,12,4,5.5
O=C1c2ccccc2C(O)N1Cc1ccccc1 (stereo not drawn),-1,11190,·,4,4,4,6.6
COC1OC2COC(c3ccccc3)OC2C(OC(C)=O)C1OC(C)=O (stereo not drawn),·,4038,2,2,23,8,2.7
COc1ccc(C(=O)C2CCCN(C(=O)c3ccc4nccnc4c3)C2)c(C)c1 (stereo not drawn),-1,6275,-22,5,0,2,-0.2
C#CCOc1ccc(CNC[C@H]2O[C@@H](n3cnc4c(N)ncnc43)[C@H](O)[C@@H]2O)cc1,·,3694,-17,1,-11,-9,2.2
CC(C)Cc1nnc(NC(=O)c2ccc3c(c2)OCCO3)s1,·,·,·,-12,9,2,4.9
COc1ccc(CN(C)C(=O)c2cnc(C)cn2)c(OC)c1OC,-5,3080,-5,5,10,0,-0.4
COc1cccc(C(=O)NNC(=O)C(=O)Nc2cccc(Cl)c2C)c1,3,3943,-1,-18,-7,-2,-1.6
Cc1ccccc1NCN1C(=O)C2C3C=CC(C3)C2C1=O (stereo not drawn),10,3154,-21,-7,-2,-3,-0.6
CCOc1ccc(-c2cc(CCCC(=O)NCCCOC)no2)cc1,13,10196,8,18,8,8,0.6
Cc1ccccc1C=NN1CCN(c2ccccc2)CC1,·,·,·,10,2,14,5.4

# Some entries already given, showing only RN4220 kill, Sa ugtP lethal and Mtb hypoxia inh growth.
smiles	RN4220 kill	Sa ugtP lethal	Mtb hypoxia inh growth
COC1OC2COC(c3ccccc3)OC2C(OC(C)=O)C1OC(C)=O (stereo not drawn)	2.7	2	8
COc1ccc(C(=O)C2CCCN(C(=O)c3ccc4nccnc4c3)C2)c(C)c1 (stereo not drawn)	-0.2	5	2

# The list continues.
SMILES,BJeLR viability,Autofluor counter,PrP 5UTR inh,Sa ugtP lethal,Mtb hypoxia inh,Mtb hypoxia inh growth,RN4220 kill
COc1ccc(CCN(Cc2nc3ccccc3c(=O)[nH]2)C(=O)c2ccco2)cc1,-6,3383,-13,4,-3,0,8.4
Cc1ccc(CS(=O)(=O)Cc2ccc(C(=O)NCCCN3CC(C)CC(C)C3)o2)cc1 (stereo not drawn),1,4258,-14,14,8,-5,2.9
CCN(CC(=O)NCc1ccc(F)cc1)C(=O)c1cccc(S(=O)(=O)N(C)c2ccc(OC)cc2)c1,·,3543,-2,1,3,4,-1.3
Cc1cc(C)cc(NC(=O)Nc2ccc(N3CCCCC3)cc2)c1,6,·,-65,-4,2,0,1.2
O=C(NCc1ccccc1)C(=O)c1cn(CC(=O)N2CCOCC2)c2ccccc12,-2,·,-31,2,8,-6,-0.6
CN(CC(=O)N1CC=C(c2ccccc2)CC1)S(=O)(=O)c1ccc2c(c1)c(=O)n(C)c(=O)n2C,-3,4416,3,12,-3,4,3.6
COc1ccccc1NC(CC(=O)c1ccccc1)C(=O)OCC(=O)c1ccc(F)cc1 (stereo not drawn),-10,2351,-107,55,7,3,3.5
O=c1cnn(Cc2c(Cl)cccc2Cl)c2ccccc12,1,6157,-8,-6,-2,-2,1.5
O=C(Nc1ccc(-c2csc(Nc3ccc(Cl)cc3)n2)cc1)c1ccccc1,·,3839,-30,-14,12,10,2.9
CC(=O)c1c(C)n(-c2ccccc2)c2ccc(OCC(O)CN3CCOCC3)cc12 (stereo not drawn),-2,9589,-6,5,10,5,1.3
O=C(Nc1nc2ccccc2s1)c1ccc([N+](=O)[O-])o1,7,4025,-13,5,10,2,7.8
CC(=O)N1c2cc3ccccc3cc2N(C(C)=O)c2cc3ccccc3cc21,·,3420,-22,4,16,4,1.6
CCOC(=O)C1=C(CS(=O)(=O)c2ccc(C)cc2)NC(=O)NC1c1ccc(O)c(OC)c1 (stereo not drawn),16,4465,-4,2,13,6,3.2
O=S(=O)(c1ccc(Br)s1)N1CCC2(CC1)OCCO2,-2,6857,-8,-8,4,1,5.8
COc1ccc(S(=O)(=O)N2CCOCC2)cc1NC(=O)c1ccccc1C,4,4162,-1,14,3,-5,4.5
COc1ccc(C)cc1NC(=O)CCCN1C(=O)C(c2ccccc2)Oc2cccnc21 (stereo not drawn),-2,4186,-6,5,2,-5,2.1
N#C/C(=C\c1c(F)cccc1Cl)S(=O)(=O)c1ccccn1,-1,4907,-12,13,-4,11,12
Cc1cc(C)nc(NN=C(c2ccccc2)c2ccccc2)n1,-3,2032,-6,12,7,3,1.1
CCOC(=O)C1CCN(C(=O)COc2ccc(S(=O)(=O)N3CCOCC3)cc2C)CC1,-4,5477,-23,8,8,3,0.5
CC(NC(=O)CCc1nnc(-c2ccc(-c3ccccc3)cc2)o1)c1nccs1 (stereo not drawn),4,4603,26,6,8,5,7.3
CN1CCN(C2=NCCO2)CC1,-2,4393,-28,1,8,-2,1.7
CCOc1ccccc1C(=O)NCC(=O)NCCc1ccc(S(N)(=O)=O)cc1,-1,5481,-8,14,0,11,-1.4
C=CCC(CC(=O)NCCO)C(=O)NCCOC(=O)C(CC=C)Cc1ccc(F)cc1 (stereo not drawn),·,·,·,5,8,6,4.1
Cc1cc2cc(CN3C(=O)c4ccccc4C3=O)ccc2[nH]1,-7,3464,-12,5,4,1,0.3
CCN(CC)CCNC(=S)Nc1ccc2nc(N3CCOCC3)cc(C)c2c1,-10,3654,3,12,-14,-6,5.0
CC(O)Cc1cn(C(CCCCNC(=O)OC(C)(C)C)C(=O)N2CCN(C(=O)OC(C)(C)C)CC2)nn1 (stereo not drawn),·,·,·,-7,-6,2,-3.6
O=C(Nc1ccccc1Cl)C1CCCN(S(=O)(=O)c2ccc(F)cc2)C1 (stereo not drawn),-5,7877,-1,-3,4,-3,2.2
Cc1cccc(OCC(=O)Nc2ccc3c(c2)nc(CN2CCCCC2)n3C)c1,-6,6100,-1,10,7,8,3.5
CN1CCC(N(C)S(=O)(=O)c2ccc(NC(=O)COc3ccc(Br)cc3Cl)cc2)CC1,7,4865,-14,7,11,0,-1.4
Cc1nc(N)sc1C(=O)N/N=C/c1c[nH]c2ccccc12,1,9680,-17,·,·,·,·
CC(C)CCNC(=O)C1CC(=O)N(CCc2ccccc2)C1 (stereo not drawn),7,3663,-8,-4,-5,3,-2.2
Cc1ccc(CNC(=O)C2CCCN(c3nc4ccsc4c(=O)s3)C2)cc1 (stereo not drawn),12,4898,-3,5,1,-3,4.1
COC(=O)c1ccc(C=NN2CCN(Cc3ccc(C)cc3C)CC2)cc1,·,·,·,54,0,0,-3.5
COC(=O)c1cc(NC(=O)CCc2c(C)nc3ncnn3c2C)cc(C(=O)OC)c1,0,17830*,1,-7,-1,-1,-4.7
C=C(C)[C@H]1CN[C@H](C(=O)O)[C@H]1CC(=O)O,10,4294,-2,·,·,·,·
O=C(NN=Cc1ccc[nH]1)c1cc(-c2ccc(Cl)cc2)nc2ccccc12,·,·,·,-16,5,3,-9.0
Cc1cc(NC(=O)CCC(=O)N(c2ccc(F)cc2)C(C(=O)NC2CCCC2)c2ccccc2)no1 (stereo not drawn),-11,3822,-21,-1,14,2,-1.3
CCOC(=O)CCCCC(=O)c1[nH]c(=O)[nH]c1CSc1nnc2c3cc(Br)ccc3n(C)c2n1,0,·,·,5,10,6,0.5
O=C(CSc1cccc[n+]1[O-])Nc1cc(Cl)ccc1[N+](=O)[O-],·,3831,-9,2,2,6,3.9
COC(=O)c1ccccc1NC(=O)NN1CCN(C)CC1,0,5695,-21,5,11,-10,3.3
CCOC(=O)c1ccccc1NC(=O)c1cc(S(=O)(=O)N2CCOCC2)ccc1F,6,4800,-20,0,·,·,-0.6
CC(=NNc1nc(N2CCOCC2)nc(N2CCOCC2)n1)c1ccc([N+](=O)[O-])cc1,·,·,·,1,-6,2,1.3
CC(=O)C1=C(O)C(=O)N(c2ccc(O)cc2)C1c1ccccc1[N+](=O)[O-] (stereo not drawn),3,3366,-10,1,2,-9,2.4
O=C(NCc1ccc2c(c1)OCO2)c1cc(-c2ccncc2)nc2ccccc12,1,3425,-6,12,12,5,0.9
COCCNC(=S)NC(=O)c1ccc(C(C)(C)C)cc1,-3,5182,-28,10,5,10,1.1
ClC(Cl)(c1nnnn1-c1ccccc1)c1nnnn1-c1ccccc1,·,7932,-18,100*,14,10,100*
C/C=C(/C)C(=O)Nc1cccc(C2=NOC3(C2)C[C@H](C(N)=O)N(C(=O)COc2ccc(Cl)cc2)C3)c1 (stereo partly drawn),0,3869,-4,·,·,·,·
O=C(COC(=O)c1cc(-c2ccccc2)nc2ccccc12)NCC1CCCO1 (stereo not drawn),9,3878,-17,1,5,13,5.5
CC(=O)c1ccc(OCC(C)Oc2ccc(C#N)cc2)cc1 (stereo not drawn),-8,4574,-1,2,2,9,6.2
Cc1ccc(NC(=O)Nc2nnc(-c3ccncc3)s2)cc1,3,3302,-47,1,-4,6,-0.6
CC(C)CC(NC(=O)C(CC(C)C)NC(=O)OC(C)(C)C)C(=O)O (stereo not drawn),1,5179,-20,1,·,·,-0.6
Cc1oc(-c2ccccc2)nc1CN1C(=O)CN=C(c2ccccc2)c2ccccc21,-7,5978,-21,·,·,·,·
Cc1cc(NC(=O)CSc2nnc3ccc(-c4ccc(F)cc4)nn23)no1,4,?,-14,3,7,4,0.7
N#CCSc1nc2ccccc2c2nc3ccccc3n12,-6,2634,-16,6,-9,8,-10
Cc1cc(C(F)(F)F)nc(Nc2nc(C)c3ccccc3n2)n1,-8,4368,-5,5,·,·,0.8
O=C(Nc1cccc(-c2ccc(N3CCOCC3)nn2)c1)c1ccc(F)cc1F,-1,5007,-46,-3,-10,2,0.9
Cc1cccc(NS(=O)(=O)c2ccc(C(=O)N3CCCC3)cc2)c1C,-9,·,-6,-1,1,2,2.3
CC1(CCCN2C(=O)c3ccccc3C2=O)OCCO1,-20,·,·,7,11,-7,2.6
Cc1nn(C(CC(=O)O)C(=O)O)c(C)c1Br (stereo not drawn),-3,9463,-20,-1,7,-1,2.3
CC1Cc2ccccc2N1S(=O)(=O)c1cnc[nH]1 (stereo not drawn),1,4758,7,-5,·,·,8.0

# A draw from above in order of SMILES length, falling.
SMILES,BJeLR viability,Autofluor counter,PrP 5UTR inh,Sa ugtP lethal,Mtb hypoxia inh,Mtb hypoxia inh growth,RN4220 kill
O=C(Nc1cccc(-c2ccc(N3CCOCC3)nn2)c1)c1ccc(F)cc1F,-1,5007,-46,-3,-10,2,0.9
CC(C)CC(NC(=O)C(CC(C)C)NC(=O)OC(C)(C)C)C(=O)O (stereo not drawn),1,5179,-20,1,·,·,-0.6
Cc1cc(C(F)(F)F)nc(Nc2nc(C)c3ccccc3n2)n1,-8,4368,-5,5,·,·,0.8

# (more compounds)
SMILES,BJeLR viability,Autofluor counter,PrP 5UTR inh,Sa ugtP lethal,Mtb hypoxia inh,Mtb hypoxia inh growth,RN4220 kill
COc1cc(C=NNC(=O)CC(=O)NCCc2ccccc2)ccc1O,·,·,·,-4,11,13,1.1
COc1ccccc1NC(=O)Nc1ccncc1,4,4853,-3,-6,-11,-11,-2.2
O=C(CN1CCC(O)(c2cccc(C(F)(F)F)c2)CC1)NCCc1ccccc1,-7,3649,-15,·,·,·,·
O=C(c1cc(-c2ccc(Cl)cc2Cl)on1)N1CCOCC1,-4,7686,-22,-1,5,9,5.3
C=C(C)C(=O)Nc1nnc(-c2ccccc2C)s1,·,3870,-28,2,8,12,-26
Cc1cccc(C)c1NC(=O)N1CC(C)OC(C)C1 (stereo not drawn),1,2955,-18,3,-4,5,-3.9
COc1cc(OC)c2c(-c3ccccc3)cc(=O)oc2c1C(CCN1CCCC(C)C1)c1ccc2c(c1)OCO2 (stereo not drawn),-3,4244,-3,-6,-6,11,-9.6
CCN(CC)C(=O)Cn1cnc2sc(C)c(S(=O)(=O)N3CCC(C)CC3)c2c1=O,4,3549,-29,-1,11,5,0.3
CC(=O)c1cc2c(cc1NC(=O)Cn1cnc3ccccc3c1=O)OCO2,·,3046,-5,3,-3,-10,3.1
COc1ccc(C=NNC(=O)Cc2ccc(Cl)cc2)cc1OC,·,·,·,-4,-5,-4,11
C=C(C)C(=O)OCC(C)C,·,5542,-3,10,5,0,5.7
